PINK1 expr mod = PINK1 expression modulation; Potency, µM (doses to about 76.6 µM), inactives show top-dose activation (PINK1 increase), usual class: activators; 410,000 compounds, 0.2% hits; PINK1 immunofluorescence, high-content cytometry, 24 h; active = well fitted activation curve with a large enough effect; inconclusive = small, poorly fitted or top-dose-only effect; inactive = flat fitted curve, though single readings scatter; cell line not stated here;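 further: potency means the concentration at half of the fitted maximal effect; % of control where 0% means no effect; nearly all actives have a fitted effect of over 65% in size; a mitochondrial uncoupler was the plate control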
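Decision-based qHTS: stable cells, 24 h exposure to five compound concentrations, CCCP as control. Fixed cells stained for PINK1 plus nuclear, mitochondrial and cell markers, cytometer read.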
ClpP mod = qHTS Assay for Activators of ClpP | ATP-dependent Clp protease proteolytic subunit (Bacillus subtilis (strain 168)), P80244 | purified B. subtilis ClpP, FRET peptide cleavage, 20 min | 340,000 compounds, 1.9% hits | Potency, µM (titrated, usually from 57.5 µM), for inactives: top-dose activity change, negative = active; active = well fitted falling curve with a large enough effect; inconclusive = small, poorly fitted or top-dose-only effect; inactive = no such curve, though single readings can be large or run the other way; further: potency means the concentration at half of the fitted maximal effect; the source files actives as falling curves though it sought activators and does not explain the sign; nearly all actives have a fitted effect of over 65% in size; many hits overshoot -100%
Target sequence (P80244 whole entry, looked up): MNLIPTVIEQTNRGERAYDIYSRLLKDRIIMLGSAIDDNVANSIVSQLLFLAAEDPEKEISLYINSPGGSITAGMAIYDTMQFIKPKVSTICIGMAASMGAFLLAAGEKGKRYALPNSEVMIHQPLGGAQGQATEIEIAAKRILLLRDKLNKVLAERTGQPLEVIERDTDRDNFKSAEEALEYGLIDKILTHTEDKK
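Purified B. subtilis ClpP, 10 microg/mL final in Tris/HCl pH8 with KCl, BSA, glycerol and Tween-20, cleaved an Abz/nitrotyrosine-quenched decapeptide. Fluorescence (ex 320, em 430) was read at 0 and 20 min at room temperature. Delta was normalized to 5.8 microM ADEP and DMSO/no-enzyme controls.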
Menin MLL FP FL = menin-MLL binding inhibition, fluorescein peptide | Fluorescence polarization, fluorescein-MLL peptide displacement from menin | FP activity change, % at 61.4 µM | 290,000 tested, under 10 active | AID 1766; inconclusive = falling polarisation curve, or a change in total fluorescence; inactive = total fluorescence flat and polarisation flat or rising; no compound was filed as active; the % refers to the polarisation; negative = inhibition;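 further: % of control where 0% means no effect; inhibitors lower the polarisation; unlabelled MLL peptide was the positive control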
gsp antag = antagonists of gsp mutant (McCune-Albright syndrome); gsp-mutant cells, cAMP HTRF, 30 min; control for the full effect not named in the record; Potency, µM (titrated, usually from 76.9 µM), inactives show at the top dose activity change, negative = inhibition, actives largely listed as inhibitors; 340,000 compounds, 0.4% hits; AID 624288; active = falling curve of any shape with a large fitted effect; inconclusive = falling curve, mostly with a smaller effect; inactive = flat or rising curve; cell line not stated here;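 further: intracellular cAMP measured with PDE inhibitor Ro 20-1724 present during compound exposure; potency means the concentration at half of the fitted maximal effect; on the % scale 0 is the no-effect control and ±100 the full control effect; nearly all actives have a fitted effect of over 65% in size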
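Cells, 2000/well, grown 16–24 h in DMEM 10% FBS with 0.5 mg/ml G418, then compounds plus […] (300 uM addition stock), 30 min at 37C. cAMP read by HTRF (cAMP-d2 and anti-cAMP antibody-K in lysis buffer) after 30 min RT.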
D2 ag = agonists of human D2 dopamine receptor (beta-arrestin); 360,000 compounds, 0.084% hits; activation, % (no concentration beside the values); DiscoveRx PathHunter D2 beta-arrestin, luminescence, 90 min; 100% = 57 uM dopamine signal; in the data active = activation above about 40%; inconclusive = about 15% to 40%; inactive = below about 15%; further: compound concentration not given in the record; the text of the record calls up to 30% inactive
Target sequence (P14416 whole entry, looked up): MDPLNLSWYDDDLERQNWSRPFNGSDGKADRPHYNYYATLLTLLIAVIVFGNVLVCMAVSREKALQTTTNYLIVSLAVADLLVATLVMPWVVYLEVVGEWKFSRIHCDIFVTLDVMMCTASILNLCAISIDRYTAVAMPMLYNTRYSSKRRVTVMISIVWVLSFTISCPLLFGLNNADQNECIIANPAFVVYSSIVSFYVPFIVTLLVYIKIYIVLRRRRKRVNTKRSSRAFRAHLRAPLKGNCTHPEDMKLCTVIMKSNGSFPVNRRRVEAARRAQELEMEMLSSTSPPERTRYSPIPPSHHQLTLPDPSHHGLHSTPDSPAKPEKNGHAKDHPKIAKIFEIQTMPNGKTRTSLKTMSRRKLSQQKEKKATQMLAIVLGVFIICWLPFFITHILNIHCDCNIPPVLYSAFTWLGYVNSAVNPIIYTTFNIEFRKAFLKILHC
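Agonist mode: compounds alone added to overnight-plated D2 PathHunter cells for 90 min at 37 C, with 57 uM final dopamine (EC100) defining full response. Beta-arrestin recruitment detected by chemiluminescent reagent, read after 1 h at ambient temperature.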
Sfp PPTase inh = blocks B. subtilis Sfp PPTase activity; Q9F4F7; Biochemical Sfp PPTase activity, qHTS; Potency, µM, without a hit: max response, negative = inhibition, hits mostly inhibitors; 310,000 compounds, 3.5% hits; active means well fitted inhibition curve with a large enough effect; inconclusive means small, poorly fitted or top-dose-only effect, or another doubt; inactive means no such curve, though single readings can be large or run the other way;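 further: the enzyme is Sfp with the accession as filed and its product quenches rhodamine fluorescence; potency means the concentration at half of the fitted maximal effect; 0% = enzyme reaction without inhibitor and -100% = no enzyme wells; top concentration of the series not given in the record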
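With Hepes-Na pH 7.6 buffer containing 10 mM MgCl2, Sfp (15 nM) modified BHQ-2-YbbR (12.5 uM) using rhodamine-CoA (5 uM). Two reads 30 minutes apart at 525/598 nm yielded each well's rate.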
gsp agonist = activates gsp, the McCune-Albright syndrome mutation | gsp mutant cells, cAMP HTRF, 30 min; control for the full effect not named in the record | AID 624287 | 340,000 compounds, 0.13% hits | Potency, µM (series often up to 76.9 µM), inactives show top-dose activation (cAMP increase), actives largely listed as activators; active = well fitted activation curve with a large enough effect; inconclusive = small, poorly fitted or top-dose-only effect, or another doubt; inactive = no such curve, though single readings can be large or run the other way; cell line not stated here;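 further: phosphodiesterase inhibitor Ro 20-1724 added with compounds to block cAMP breakdown; potency means the concentration at half of the fitted maximal effect; nearly all actives have a fitted effect of over 60% in size; about a fifth of the inactives were tested at one dose only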
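Cells stably selected in G418 were plated at 2000/well, grown 16-24 hr, then given compounds in DMSO with the PDE inhibitor […] (300 uM solution added) for 30 min at 37C; cAMP was read by HTRF.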
* hit, by the source's call; ? = inconclusive; · = no result given; & = joins results of further samples; [ ] = dose if it differs, or a comment. The order is random, and some 5.1% of all compounds hit somewhere here.

SMILES | PINK1 expr mod | ClpP mod | Menin MLL FP FL | gsp antag | D2 ag | Sfp PPTase inh | gsp agonist
COc1ccc(C(=O)Nc2cccc(C(=O)N3CCN(C)CC3)c2)cc1 | -2.8% | -5.2% | 1.8 | 5% | -0.5 | 3% | 0%
Cn1c(Cc2ccccc2)nnc1SCC(=O)c1ccc(Br)s1 | 2.9% | -0.3% | -0.1 | 5% | -2.4 | 20µM* | 18%
COc1ccc(OC)c(NC(=O)Nc2ccccc2C)c1 | -3.2% | -2.0% | 1.9 | -1% | -2.2 | 15% | -30%
Cc1ccccc1NC(=O)c1cn(-c2ccccc2)nc1-c1ccccc1 | -1.9%&-1.0% | -5.3%&-11% | 2.6 | ? | 0.0 | 28% | -27%
CCOC(=O)C1CCN(C(=O)c2sc3nc(-c4ccc(F)cc4)cn3c2C)CC1 | 1.8% | -3.5% | -3.9 | -13% | 2.7 | 16% | 10%
COc1cccc(NC(=S)/C(=C(\[O-])c2cc(C)n(-c3ccccc3F)c2C)[n+]2ccc(N(C)C)cc2)c1 | 16µM* | -1.0% | 0.6 | -15% | -4.8 | -16% | -54%[inhibitor]
O=C1NC(=O)C2(COC(c3ccncc3)OC2)S1 (stereo unspecified) | 1.4% | -1.6% | 3.5 | 4% | -3.8 | -15% | 24%
COc1ccc(/C=C2/C(=N)N3N=C(CC(=O)N4CCCC4)SC3=NC2=O)cc1 | 0.2% | -0.6% | 0.8 | -24% | -4.1 | 19% | -18%
Cc1ccc(S(=O)(=O)n2nc(OC(=O)c3cccc(F)c3)cc2N)cc1 | 9.6% | -0.1% | 3.7 | 26% | -7.2 | ? | -3%[15.4 µM]
COc1ccccc1CC(=O)OC(C)C(=O)Nc1ccc(S(=O)(=O)N2CCCCC2)cc1 (stereo unspecified) | 5.5% | -13% | · | -12% | -0.1 | · | 27%
Nc1c(Cl)cc(-c2csc(NC(CO)c3nc4ccccc4n3CCOCCO)n2)cc1Cl (stereo unspecified) | 0.3% | -0.7% | · | ? | -1.2 | · | ·
Cc1[nH]c2ccccc2c1C(=O)CN1CCCCC1C (stereo unspecified) | 0.9% | 0.8% | 3.4 | -7% | 0.8 | 16% | 0%
S=c1[nH]c(-c2ccc(Br)cc2)cn1CCc1ccccc1 | 0.7% | · | -0.1 | 10% | 8.4 | 6% | -15%[15.4 µM]
Cc1cc(C)n2nc(SCc3nnc(-c4cccs4)o3)nc2n1 | 0.0% | · | -0.1 | 8% | -0.1 | 19% | -7%[15.4 µM]
Cc1nc2ccc(NC(=O)CS(=O)(=O)c3ccc(F)cc3)cc2s1 | 0.4% | -3.2% | · | 2% | -3.4 | · | -6%
COc1ccc(OC)c(CNC(=O)CCn2nc(C)c3c(C)n(-c4ccccc4)nc3c2=O)c1 | -0.2% | -1.5% | · | 0% | 3.7 | 15% | -7%
CS(=O)(=O)NN1C(=O)c2ccccc2NC1c1cccs1 (stereo unspecified) | -0.7% | · | -5.0 | 5% | -0.6 | 20% | -15%[15.4 µM]
COc1ccc(C(=O)Nc2ccccc2C(=O)N2CCCCCC2)cc1OC | -1.3% | -0.7% | -6.0 | -8% | -7.1 | 7% | -10%
OCc1cccc(-c2cnc3c(Nc4cccc(OC(F)(F)C(F)F)c4)nccn23)c1 | 11% | -25% | · | · | 7.4 | · | ·
Cc1ccc(-c2noc(CCCC(=O)Nc3cccnc3)n2)cc1 | -0.7% | -1.9% | -0.4 | ? | -0.1 | -9% | ?
Cc1cc(N2CCN(C)CC2)nc2ccc(NC(=O)CCC(=O)NCc3ccco3)cc12 | 2.0%[38.3 µM] | 22µM* | 3.1 | 2% | -2.8 | 5% | -56%[inhibitor]
CCOC(=O)N1CCN(c2c(NCc3ccc(F)cc3)c(=O)c2=O)CC1 | 11% | 0.4% | 2.1 | 8% | 0.0 | 16% | 10%
Brc1c(CSc2nncc3ccccc23)nc2ccccn12 | 3.2% | 0.3% | -1.3 | 4% | -2.7 | -6% | -4%[15.4 µM]
COc1ccccc1CP(=O)(c1ccccc1)c1ccccc1 | -0.7% | -7.7% | -0.4 | 11% | -2.9 | -13% | -3%
C/C(=N\NC(=O)CCC(=O)NCc1ccccc1)c1ccco1 | 0.2% | 0.6% | · | 11% | -5.5 | 14% | 4%
O=C(NC(=S)Nc1ccc(Oc2ccccc2)cc1)c1ccc(Cl)cc1 | 1.0%[38.3 µM] | -3.2% | -1.6 | -18% | 2.3 | -1% | -3%
CCc1nc2ccc(C(=O)NC3CCN(Cc4ccccc4)CC3)cn2c1N(C)Cc1cccs1 | -0.3% | -3.7% | · | · | -3.4 | · | ·
COc1ccc(N2CCN(C(=O)CNC(=O)Cn3c(C)cc4ccccc4c3=O)CC2)cc1 | 3.0%[38.3 µM] | -26% | 0.8 | -4% | 0.0 | 10% | 13%
CCN(CC)C(=S)SCC(=O)c1c(C)[nH]c2ccccc12 | -1.5% | ? | 5.1 | -11% | -1.5 | 6% | 28%
Cc1cccc(-c2nc(CS(=O)CC(=O)NCCCSC3CCCCC3)c(C)o2)c1 (stereo unspecified) | -2.5% | 0.5% | 1.1 | -10% | -1.6 | -24% | -10%
Cc1ccc(S(=O)(=O)N2CCOCC2)cc1C(=O)OCCOc1cccc(Cl)c1 | -1.2% | 0.7% | · | 4% | 0.1 | · | -38%[inhibitor]
O=C(NCc1ccc(N2CCCC2=O)cc1)C1CCC(=O)N(Cc2ccccc2F)C1 (stereo unspecified) | 0.5% | 1.0% | -2.7 | -15% | 0.2 | 8% | -13%
O=C(NNC(=O)c1ccccc1Cl)c1csc(N2CCOCC2)n1 | 0.7% | -1.4% | · | 17% | -3.7 | · | -3%
CCC1CCCCN1C(=O)N[C@@H](CCSC)C(=O)OC (stereo partly specified) | 1.8% | -8.4% | 4.0 | 10% | -1.6 | 16% | 7%
COC(=O)c1c(NC(=O)CSc2ncnc3c2cnn3-c2ccccc2Cl)sc2c1CCCC2 | 10% | -0.2% | 6.9 | -11% | -4.0 | 3% | 2%
CC(NS(=O)(=O)c1ccc(Br)cc1)C(=O)Nc1nc2ccccc2[nH]1 (stereo unspecified) | 1.0% | · | · | -8% | -1.6 | · | 19%[15.4 µM]
COC(=O)c1c(NC(=O)/C=C/C(=O)O)sc(C)c1-c1ccc(C)c(C)c1 | -0.8% | 3.9% | -5.6 | -3% | -3.3 | -15% | -32%
CCOC(=O)C1CN(S(=O)(=O)c2ccccc2)c2cc(S(=O)(=O)CC)ccc2O1 (stereo unspecified) | -2.4% | 1.4% | -2.5 | -11% | -2.4 | 11% | 28%
Cc1cccc(N(CC(=O)NCc2ccccc2)C(=O)Cn2nnc(-c3ccc(C)o3)n2)c1 | 2.3%[38.3 µM] | -1.2% | 0.1 | -17% | -2.7 | 22% | -37%[inhibitor]
COC(=O)c1cn(NC(=O)c2cc(OC)c(OC)c(OC)c2)c(=O)c2ccccc12 | -3.2% | 16% | 1.3 | 2% | -2.6 | -11% | ?
CN(Cc1ccccc1)CC(O)CN(C)Cc1ccccc1 | -1.9% | · | · | 7% | -1.8 | · | -1%
Cc1csc(CNC(=O)CC2C(=O)NCCN2Cc2ccc(F)cc2Cl)n1 (stereo unspecified) | 7.2% | 1.0% | · | 10% | -1.2 | -23% | -12%
COc1ccc(C2(O)CCN(C(=O)NC3CCCCC3)CC2)cc1 | -4.4%[38.3 µM] | -1.7% | 1.6 | 0% | -3.5 | -1% | 28%
CC(C)Oc1ccc(C(=O)NC(=S)Nc2ccc(CN3CCOCC3)cc2)cc1 | 4.3% | · | 5.9 | 15% | -4.3 | -15% | -4%[15.4 µM]
O=C(Cc1ccc(Br)cc1)Nc1cccc(-c2cn3c(n2)SCC3)c1 | 9.8% | 0.5% | 5.0 | -12% | 8.5 | 13% | -13%[15.4 µM]
CCN1C(=O)CSc2ccc(C(=O)NCCCN3CCOCC3)cc21 | 9.2%[38.3 µM] | -0.6% | -0.7 | 4% | -1.9 | -2% | -69%[inhibitor]
Cc1cccc(NC(=O)CN(C)C(=O)Cc2ccc(-c3ccccc3)cc2)c1C | 11% | 1.7% | · | · | 0.3 | · | ?
O=C(NCCCN1CCOCC1)C1CC(=O)N(c2ccccc2)C1 (stereo unspecified) | -1.3% | · | -7.6 | 5% | 2.4 | 2% | -6%
CC(C)(C)NC(=O)CSc1nc2cccnc2n1C1CCCCC1 | 0.1% | -0.2% | 1.7 | -5% | -0.1 | 4% | ?
CNS(=O)(=O)c1cccc2cccnc12 | -1.5% | -3.3% | 4.1 | 12% | -0.7 | -1% | -1%
COc1ccccc1-c1noc(CCCC(=O)NC2CCCCC2)n1 | -0.9% | · | -0.3 | 5% | -1.6 | 11% | -4%
O=C(O)[C@H]1CCCC[C@H]1C(=O)NCCNC(=O)[C@@H]1CCCC[C@@H]1C(=O)O | 12%[38.3 µM] | -3.3% | -1.3 | 16% | -3.6 | 2% | 7%
CCOC(=O)C(C(=O)OCC)N(C#N)c1nc(SC)nc(N(C)C)n1 | -0.7% | 1.5% | 2.3 | -13% | -3.8 | 8% | -60%[inhibitor]
CCC(CC)C(=O)Nc1cccc(C(=O)Nc2ccc(S(N)(=O)=O)cc2)c1 | 0.0% | · | 0.6 | 4% | 0.8 | 29% | -21%
Cc1nnc(SCC(=O)NCCC2=CCCCC2)[nH]c1=O | 0.1% | 1.0% | · | 1% | 4.2 | · | 0%

Compounds shown so far containing a COOH group, in the order listed:
SMILES | PINK1 expr mod | ClpP mod | Menin MLL FP FL | gsp antag | D2 ag | Sfp PPTase inh | gsp agonist
COC(=O)c1c(NC(=O)/C=C/C(=O)O)sc(C)c1-c1ccc(C)c(C)c1 | -0.8% | 3.9% | -5.6 | -3% | -3.3 | -15% | -32%
O=C(O)[C@H]1CCCC[C@H]1C(=O)NCCNC(=O)[C@@H]1CCCC[C@@H]1C(=O)O | 12%[38.3 µM] | -3.3% | -1.3 | 16% | -3.6 | 2% | 7%
